Screening results deposited in PubChem BioAssay by National Center for Advancing Translational Sciences (NCATS).
Rango complex inh: inhibitors of Rango-importin beta complex formation. Rango CFP/YFP FRET sensor + importin beta, 45 min. 0.031% of 340,000 active. Potency, µM (top dose mostly 92.2 µM), inactives show at the top dose inhibition of complex formation. AID 540263. Q14974; active = rising FRET ratio curve, often small or poorly fitted; inconclusive = mostly compound fluorescence or quenching in the first reads; inactive = flat curves in all reads;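 further: potency means the concentration at half of the fitted maximal effect; 0% = DMSO wells and 100% = buffer wells lacking importin beta; nearly all actives have a fitted effect of over 15% in size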
Target sequence (Q14974 whole entry, looked up): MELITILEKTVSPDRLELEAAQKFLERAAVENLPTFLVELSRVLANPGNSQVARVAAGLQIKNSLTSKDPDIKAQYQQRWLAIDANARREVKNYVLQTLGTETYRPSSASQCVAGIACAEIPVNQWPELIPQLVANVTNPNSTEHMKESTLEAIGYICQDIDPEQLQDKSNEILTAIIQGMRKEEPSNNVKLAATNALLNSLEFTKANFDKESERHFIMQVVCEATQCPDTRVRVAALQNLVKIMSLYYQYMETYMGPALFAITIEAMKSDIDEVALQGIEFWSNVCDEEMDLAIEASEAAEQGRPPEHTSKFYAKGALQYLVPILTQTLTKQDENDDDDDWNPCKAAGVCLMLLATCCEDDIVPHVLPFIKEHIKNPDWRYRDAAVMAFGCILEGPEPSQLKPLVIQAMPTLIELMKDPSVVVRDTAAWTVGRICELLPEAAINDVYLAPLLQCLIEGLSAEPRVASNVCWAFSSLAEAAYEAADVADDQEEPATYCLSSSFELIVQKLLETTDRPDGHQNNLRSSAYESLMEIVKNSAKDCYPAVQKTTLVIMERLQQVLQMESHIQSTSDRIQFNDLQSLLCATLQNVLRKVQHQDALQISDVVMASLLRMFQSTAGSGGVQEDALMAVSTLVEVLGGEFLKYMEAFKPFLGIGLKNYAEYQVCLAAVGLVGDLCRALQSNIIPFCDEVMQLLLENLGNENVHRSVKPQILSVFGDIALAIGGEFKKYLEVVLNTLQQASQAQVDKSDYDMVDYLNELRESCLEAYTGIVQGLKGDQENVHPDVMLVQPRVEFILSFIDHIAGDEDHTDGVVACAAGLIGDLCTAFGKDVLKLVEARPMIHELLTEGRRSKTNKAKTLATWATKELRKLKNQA
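FRET biosensor Rango (snurportin 1 IBB between N-terminal EYFP and C-terminal Cerulean), 50 nM in PBS/1 mM DTT/0.02% Tween-20/0.1% BSA, preincubated 5 min RT with compound; 0.125 microM importin beta added, 45 min RT, CFP/YFP FRET ratio read.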
GLA inh pH 4.5: inhibitors of human alpha-galactosidase A at pH 4.5. P06280. purified enzyme, 4-MU-alpha-Gal fluorescence, pH 4.5. activity change, negative = inhibition, % at 105 µM. 230,000 tested, under 10 active. AID 1467; inconclusive = small, poorly fitted or top-dose-only inhibition, or a rising curve; inactive = flat fitted curve, though single readings scatter; no compound was filed as active;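 further: 0% = full activity with enzyme and -100% = basal without enzyme; dose as in the result columns while the protocol names 77 µM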
Rango release inh: prevents RanGTP from dissociating the Rango-importin beta complex; Potency, µM (series often up to 46.1 µM), without a hit: top-dose activity change, negative = inhibition; 0.071% of 340,000 active; AID 540253; Biochemical FRET Rango-importin beta, RanGTP-induced dissociation; active means falling FRET ratio curve, often poorly fitted, with flat reads before Ran was added; inconclusive means other falling curves, or compound fluorescence or quenching; inactive means flat or rising ratio curve;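 further: potency means the concentration at half of the fitted maximal effect; % of control where 0% means no effect; nearly all actives have a fitted effect of over 45% in size; -100% = wells without RanGTP and RCC1; the record marks most hits as doubtful in a second field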
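Two FRET readings bracket the reaction: one 5 min after compound meets Rango–importin beta, another 45 min after RanGTP-RCC1 (0.6 uM Ran, 0.2 uM RCC1, 2 mM GTP) is added. Only the second defines inhibition.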
miR-21 FLuc: miR-21 reporter, rising signal; HeLa miR-21 FLuc reporter, luciferase, 48 h; Potency, µM (top dose mostly 38.3 µM), inactives show at the highest dose reporter change, positive = more light; 340,000 tested, under 10 active; active = well fitted rising curve with a large enough effect; inconclusive = small, poorly fitted or top-dose-only effect; inactive = no such curve, though single readings can be large or run the other way;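 further: % of control where 0% means no effect; miR-21 action dims this reporter so a rising signal means less miR-21 action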
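HeLa cells stably expressing CMV-driven firefly luciferase with a downstream miR-21 binding sequence, endogenously expressing miR-21, were treated with titrations (up to about 40uM final) for 48 hours at 37 degree Celsius. Luciferase luminescence was read after lysis.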
Numbers without * were called inactive; ? = inconclusive; . = not tested or not shown; & = joins results of further samples; [ ] = remark or other dose.

miR-21 FLuc	Rango complex inh	GLA inh pH 4.5	Rango release inh	SMILES
-6%	1.6%	6	-8%	O=c1[nH]c2cc3c(cc2cc1C(c1nnnn1C1CCCC1)N1CCCc2ccccc21)OCCO3 (stereo not given)
-19%	-3.5%	0	-15%	COc1ccc2[nH]c3c(NCc4ccco4)ncnc3c2c1
-55%	-0.9%	.	-1%	Cc1ccc(OCc2cc(C(=O)N(C)CCc3ccccc3)no2)cc1C
-65%	0.3%	8	?	CCc1ccc(NC(=O)CSc2ccccn2)cc1
2%	1.8%	.	3%	Cc1noc(C)c1CSCC(=O)N(C)CC(=O)Nc1ccc(Cl)cc1
.	2.7%	.	0%	CCN1CCN(S(=O)(=O)c2ccc(Cl)c(C(=O)N(C)Cc3ccc(F)cc3)c2)CC1
-4%	1.0%	-11	18%	O=C(Nc1ccc(S(=O)(=O)Nc2ncccn2)cc1)c1cccc(S(=O)(=O)N2CCOCC2)c1
.	2.2%	.	4%	COc1ccc(NC(=O)CN2C(=O)NC3(CCCCCC3)C2=O)cc1Cl
-9%	1.4%	-6	-4%	CC(=O)Nc1ccc(S(=O)(=O)NNC(=O)c2cccc(Cl)c2)cc1
-7%	-2.1%	8	1%	CCC(=O)N1c2ccc(S(=O)(=O)CCC(=O)NCc3ccc4c(c3)OCO4)cc2CC1C (stereo not given)
-2%	7.6%	.	-6%	COCC(=O)N(Cc1cc2ccc(C)cc2[nH]c1=O)c1cccc(C)c1
3%	-1.3%	-9	2%	S=C(NC1CCCCC1)N1CCOCC1
-16%	5.4%	-9	25%	COC(=O)CCC(NC(=O)c1cc(-c2ccc3c(c2)OCCO3)oc1C)C(=O)OC (stereo not given)
-13%	?	7	0%	Cn1c2ccccc2n2c(=O)c(=O)n(CC(=O)c3ccc(Cl)cc3)nc12
-5%	1.1%	.	0%	C/C=C(\C)CN1CCC(n2nccc2NC(=O)c2ccc3c(c2)OCO3)CC1
-4%	0.1%	.	4%	N#CCCN(C(=O)COC(=O)c1cccc(S(=O)(=O)N2CCCC2)c1)c1ccc(F)cc1
-1%	4.1%	-9	1%	CCOC(=O)C1=C(C)N(c2ccc(OCC)cc2)C(=O)/C1=C\c1ccco1
1%	-4.6%	3	33%	NC(=O)Cn1nc([N+](=O)[O-])nc1Oc1ccc(Br)cc1
25%	-1.4%	.	6%	O=C(NCc1ccc(Cl)cc1)N1CCN(Cc2ccccc2)CC1
27%	0.4%	.	5%	CCCCC(O)(c1ccc(CC)cc1)C(CN1CCOCC1)c1ccccc1 (stereo not given)
-1%	0.2%	.	26%	COc1ccc(/C=C(/NC(=O)c2ccccc2)C(=O)NCCN2CCOCC2)cc1OC
-2%	?	-5	-28%	COc1ccc(C2C(C(=O)/C=C/c3ccco3)=C(O)C(=O)N2CCN2CCOCC2)cc1OC (stereo not given)
5%	0.3%	-3	6%	Cc1cc(N2CCCC2=O)ccc1S(=O)(=O)NCCOc1ccccc1
-1%	-0.2%	7	-1%	O=C(CCC(=O)OCc1ccc(Cl)cc1)Nc1ccccc1
-12%	1.0%	-14	-5%	CC12CN3CCN(CC(C3)/C1=N/N=C/c1cccc([N+](=O)[O-])c1)C2
0%	-2.6%	-5	29%	CC(Nc1n[nH]c(=O)[nH]c1=O)C(=O)N/N=C/c1ccccc1 (stereo not given)
.	-0.7%	.	13%	O=C(NCC(c1ccco1)N1CCc2ccccc21)c1ccccc1 (stereo not given)
.	?	.	-4%	CCNC(=O)N(C)C[C@H]1N[C@@](C)(C(=O)OC)[C@H]2C(=O)N(C)C(=O)[C@@H]12
-2%	-2.8%	9	3%	CC(C)(C)C(=O)OCC1OC(n2cnc(C(N)=O)n2)C(O)C1O (stereo not given)
4%	?	-15	?	CN(C(=O)c1cc2nc(-c3ccco3)cc(C(F)(F)F)n2n1)C1CCCCC1
-3%	-2.6%	.	-5%	O=C(NCc1ccccc1Cl)/C(=C\c1cccnc1)NC(=O)c1ccccc1
2%	0.1%	0	-12%	CCO[C@@H]1OC(C(N)=O)=C[C@H](c2ccc3c(c2)OCO3)[C@H]1CCCO
1%	-2.3%	1	4%	O=C(O)CCc1ccc(-c2cccs2)n1CCC(=O)O
-7%	-0.2%	.	1%	Cc1c(C)c2c(OCC(=O)N3CCC(O)CC3)cc3c(c2oc1=O)CCC(C)(C)O3
12%	.	-6	.	CCCN1C(=O)/C(=C/c2c(N3CCNC(=O)C3CC(=O)OC)nc3c(C)cccn3c2=O)SC1=S (stereo not given)
.	-2.2%	.	27%	CCCN(C1CCS(=O)(=O)C1)S(=O)(=O)c1ccc(F)cc1 (stereo not given)
1%	5.4%	.	-8%	Nc1nc2ccccc2n1CCOc1ccc(Br)cc1
-2%	0.7%	.	1%	CSc1nnc(CNS(=O)(=O)c2ccc(Br)cc2)n1C
-1%	0.5%	2	14%	O=C(CCCC(=O)OCC(Cl)=C(Cl)Cl)Nc1ccccc1
-9%	-5.2%	-16	8%	Nc1ccccc1Oc1ncc(C(F)(F)F)cc1Cl

Exported with values under each structure: part of the list above
Order of results – miR-21 FLuc | Rango complex inh | GLA inh pH 4.5 | Rango release inh
O=C(O)CCc1ccc(-c2cccs2)n1CCC(=O)O
  1% | -2.3% | 1 | 4%
Cc1c(C)c2c(OCC(=O)N3CCC(O)CC3)cc3c(c2oc1=O)CCC(C)(C)O3
  -7% | -0.2% | . | 1%
CCCN1C(=O)/C(=C/c2c(N3CCNC(=O)C3CC(=O)OC)nc3c(C)cccn3c2=O)SC1=S (stereo not given)
  12% | . | -6 | .
CCCN(C1CCS(=O)(=O)C1)S(=O)(=O)c1ccc(F)cc1 (stereo not given)
  . | -2.2% | . | 27%
Nc1nc2ccccc2n1CCOc1ccc(Br)cc1
  1% | 5.4% | . | -8%
CSc1nnc(CNS(=O)(=O)c2ccc(Br)cc2)n1C
  -2% | 0.7% | . | 1%
O=C(CCCC(=O)OCC(Cl)=C(Cl)Cl)Nc1ccccc1
  -1% | 0.5% | 2 | 14%

Next section:
miR-21 FLuc	Rango complex inh	GLA inh pH 4.5	Rango release inh	SMILES
0%	-1.4%	-5	-11%	CCNC(=O)NC(=O)C(C)OC(=O)CNS(=O)(=O)c1c(Cl)cc(Br)cc1Cl (stereo not given)
-1%	-3.0%	3	-5%	Cc1cc(C)n(CCN(C)C(=O)c2cc(COc3c(F)cccc3F)on2)n1
-4%	3.9%	4	-11%	Cc1ccc(CNC(=O)c2ccc3c(=O)n(CCCN4CCCC4=O)c(=S)[nH]c3c2)cc1
-3%	3.8%	2[21.1 µM]	-14%	CC(Sc1ccccc1)C(=O)NN=C1CCCCCC1 (stereo not given)
-24%	1.1%	1	-1%	Cc1cccc(N2C(=O)SC(N(CC(=O)O)c3cccc(C)c3)C2=O)c1 (stereo not given)
-3%	-1.8%	0	0%	CNC(=O)COC(=O)/C=C/c1cccs1
.	?	.	8%	COc1cc(C=NNC(=O)c2ccccc2-n2cccc2)ccc1O
-84%	2.6%	-5	-8%	O=C(Cc1noc2ccccc12)Nc1ccccn1
-3%	-0.2%	.	19%	CCCCCN(C(=O)CCC(=O)OCc1ccccc1Cl)c1c(N)n(CCCC)c(=O)[nH]c1=O
-30%	-0.6%	3	3%	COc1ccc(OCc2ccc(C(=O)N3CCOCC3)cc2)cc1
.	?	.	8%	O=c1[nH]c(=O)n(C2OC(CO)C(O)C2O)cc1F (stereo not given)
-4%	?	-10	-25%	NC(=O)CN1CCN(c2ccccc2F)CC1
-5%	-0.7%	1	0%	C=CCNC(=O)CN(c1ccc(F)cc1)S(=O)(=O)c1ccc(OC)cc1
-1%	-0.2%	2	-7%	CCOc1ccc2nc(C(C)O)[nH]c2c1 (stereo not given)
.	-3.4%	.	2%	Cc1cccc2c(N=NC(=O)c3ccc(NS(=O)(=O)c4cccs4)cc3)c(O)[nH]c12
-1%&0%	?	.	-26%	CCOc1ccc(N(CC(=O)NCc2ccc(Cl)cc2)S(=O)(=O)c2c(C)noc2C)cc1
-6%	3.9%	-4	-17%	CCOC(=O)CNc1nc(Cl)nc(NC(C)(C)C)n1
?	3.1%	-6	-2%	CCOC(=O)Cc1c(C)nc2c(-c3cccc(Br)c3)c[nH]n2c1=O
9%	-0.4%	-4	-6%	CN(C)c1ccc(NC(=O)C2CCCN(S(=O)(=O)c3ccccc3)C2)cc1 (stereo not given)
-29%	2.4%	-6	3%	Cn1ncc2c(Nc3ccccc3Cl)nc(Cl)nc21
4%	.	-3	.	Cc1ccc(C2C(C(=O)c3sc(C)nc3C)=C(O)C(=O)N2CCCN(C)C)o1 (stereo not given)
.	4.6%	.	-11%	Cc1nn(-c2ccc(F)cc2)c(Cl)c1C(=O)OC(C)C(=O)N(C)C1CCCCC1 (stereo not given)
-11%	1.5%	-7	-12%	Cc1[nH]nc(SCC(=O)N2CCOCC2)c1[N+](=O)[O-]
-4%	0.0%	4	26%	CSc1ccc(C(=O)C2CCCN(C(=O)c3ccsc3)C2)cc1 (stereo not given)

2 records drawn at random from those above:
miR-21 FLuc	Rango complex inh	GLA inh pH 4.5	Rango release inh	SMILES
.	4.6%	.	-11%	Cc1nn(-c2ccc(F)cc2)c(Cl)c1C(=O)OC(C)C(=O)N(C)C1CCCCC1 (stereo not given)
?	3.1%	-6	-2%	CCOC(=O)Cc1c(C)nc2c(-c3cccc(Br)c3)c[nH]n2c1=O

(continued)
miR-21 FLuc	Rango complex inh	GLA inh pH 4.5	Rango release inh	SMILES
-34%	2.6%	1	3%	CCC(=O)N1CCN(c2ccc(NC(=O)c3ccc(Br)o3)cc2)CC1
0%	-0.9%	-1	-4%	Cc1nc2ccccc2[nH]c1=O
.	2.6%	.	-7%	O=C1CCCCC1Nc1ccc([N+](=O)[O-])cc1 (stereo not given)
-11%	-1.4%	.	0%	O=C(NCCC(=O)N1CCCCC1)c1ccccc1Cl
.	-4.9%	.	40%	O=C(CCc1ccc(S(=O)(=O)N2CCOCC2)cc1)Nc1ccccc1F
.	4.0%	.	1%	O=C(C[C@@H]1C/C=C/CC[C@H](Cc2ccc(F)cc2)C(=O)O[C@H](c2ccccc2)CNC1=O)NCCO
-5%	-1.7%	.	-1%	CCN(CC)C(=O)c1cccc(NC(=O)CC23CC4CC(CC(C4)C2)C3)c1
0%	-3.2%	-6	-11%	Oc1ccccc1/C=N/NC(=S)NC1CC2CC1C1C=CCC21 (stereo not given)
-32%	-8.7%	4	14%	CC(C)OC(=O)/C(C#N)=C/c1c[nH]c2ccccc12
-8%	4.8%	-1	10%	CCOc1ccc(N2C(=O)C3CCCN3C2=O)cc1 (stereo not given)
-2%	11%	.	-4%	CC(=O)N1CCc2cc(S(=O)(=O)NCCCN3CCC(C)CC3)ccc21
16%	-0.1%	5	-13%	O=C(CSCc1ccc(Cl)cc1)N/N=C/c1ccco1
-5%	-1.0%	-5	-4%	Cc1ccc2c(c1)cc(CN(Cc1cccs1)C(=O)c1ccco1)c1nnnn12
-1%	-0.1%	.	8%	CN(C)c1ccc(CNS(=O)(=O)c2ccc3c(c2)C(C)(C)C(=O)N3C)cc1
-34%	2.4%	-10	-9%	CCn1c(Cn2nnc(-c3ccccc3)n2)nnc1SCC(=O)Nc1ccc(C(C)=O)cc1
-8%	3.0%	-11	-9%	CCC(C)NC(=O)C1CCCN(S(=O)(=O)c2ccc(-n3cnnn3)cc2)C1 (stereo not given)
-28%	4.3%	-4	7%	CCOc1ccc(C(=O)Nc2cccc([N+](=O)[O-])c2)cc1Br
-1%	2.4%	5	4%	CCOc1ccc(CNn2nnnc2N)cc1
1%	5.1%	.	20%	CCc1nnc(NC(=O)CCC(=O)NCc2ccc(C)cc2)s1
.	?	.	-6%	O=C(CCNC(=O)c1ccccc1Cl)Nc1nc2ccc(F)cc2s1
-45%	-4.1%	-6	-2%	CN(C)CCNc1oc(COc2ccc(-c3ccccc3)cc2)nc1C#N

Two neighbouring compounds from above, for reference:
miR-21 FLuc	Rango complex inh	GLA inh pH 4.5	Rango release inh	SMILES
-28%	4.3%	-4	7%	CCOc1ccc(C(=O)Nc2cccc([N+](=O)[O-])c2)cc1Br
-1%	2.4%	5	4%	CCOc1ccc(CNn2nnnc2N)cc1

Only part of the results is shown (hit frequency here may not be typical).
